From PubChem BioAssay
Six1-Eya2 inh – Six1/Eya2 interaction inhibition | AlphaScreen GST-Six1/His-Eya2 binding, biochemical; stronger effect = lower value; control for the full effect not named in the record | activity change, % (test concentration not listed) | hit rate 0.56% among 360,000; in the data active = activity change below about -65%; inconclusive = about -30% to -65%; inactive = above about -30%; note: % is set by controls: 0 for no effect and ±100 for the full control effect; compound concentration not given in the record
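AlphaScreen luminescence read after one hour at 37 °C in darkness. Pin-transferred compounds met GST-Six1 and His-Eya2 protein (5X stock 250 nM/500 nM) plus glutathione donor and Ni-chelate acceptor beads (5X, 50 ug/mL).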
PINK1 expr mod – modulators of PINK1 expression | PINK1 immunofluorescence, high-content cytometry, 24 h | Potency, µM (top dose mostly 76.6 µM), without a hit: top-dose activation (PINK1 increase), hits mostly activators | hit rate 0.2% among 410,000; active = well fitted activation curve with a large enough effect; inconclusive = small, poorly fitted or top-dose-only effect; inactive = flat fitted curve, though single readings scatter; cell line not stated here;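 note: potency is the fitted concentration of half-maximal effect; % of control where 0% means no effect; nearly all actives have a fitted effect of over 65% in size; a mitochondrial uncoupler was the plate control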
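Stable cell line, 250 cells/well, 12 h attachment; compounds pinned at 5 concentrations, 24 h; CCCP control. Fixed with nuclear dye, primary antibodies 12 h at 10 degrees C, secondary plus cell stain; laser-scanning cytometer read.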
TRPML1 ag – activates the human TRPML1 channel; activation, % (concentration not given with the values); Q9GZU1; hit rate 0.12% among 410,000; AID 624414; TRPML1-expressing cells, Ca2+ dye fluorescence, FDSS; host cell line not named in the record; reference of the full effect not given here; in the data active = activation above about 50%; inconclusive = about 30% to 50%; inactive = below about 30%; note: 0% is about no effect; the text of the record puts the active cut at 80%
Target sequence (Q9GZU1 whole entry, looked up): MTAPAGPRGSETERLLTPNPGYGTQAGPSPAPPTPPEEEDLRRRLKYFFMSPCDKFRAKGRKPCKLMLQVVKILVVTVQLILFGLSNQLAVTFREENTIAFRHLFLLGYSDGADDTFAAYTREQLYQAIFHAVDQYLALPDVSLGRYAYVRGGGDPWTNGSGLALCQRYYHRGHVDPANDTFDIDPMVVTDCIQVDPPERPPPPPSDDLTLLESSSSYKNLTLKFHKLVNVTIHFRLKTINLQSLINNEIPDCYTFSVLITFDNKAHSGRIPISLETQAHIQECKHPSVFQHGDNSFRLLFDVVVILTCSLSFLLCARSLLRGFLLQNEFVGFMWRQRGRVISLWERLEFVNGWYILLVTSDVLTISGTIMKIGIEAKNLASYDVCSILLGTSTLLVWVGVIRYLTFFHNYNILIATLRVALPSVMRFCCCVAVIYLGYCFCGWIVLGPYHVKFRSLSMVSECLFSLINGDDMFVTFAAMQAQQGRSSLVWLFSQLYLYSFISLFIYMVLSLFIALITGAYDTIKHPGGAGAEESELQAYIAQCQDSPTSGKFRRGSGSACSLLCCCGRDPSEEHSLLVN
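Calcium fluorescence on an FDSS kinetic reader gave the read-out. Tet-induced TRPML1-DL cells were plated overnight, dye-loaded (Ca8 with quencher, 45-90 min, room temperature, dark), then read 110 s after compound addition, and again 110 s after 4uM final 54-4 (EC80).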
TRPML1 blocker – blocks the human TRPML1 channel; Q9GZU1; TRPML1-inducible cells, Ca2+ dye fluorescence, FDSS; stronger effect = lower value; inhibition of EC80 agonist-evoked calcium signal; activity change, negative = inhibition, % (concentration not given with the values); hit rate 0.02% among 390,000; AID 624415; in the data active means activity change below about -50%; inconclusive means about -30% to -50%; inactive means above about -30%;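 note: stimulus is agonist 54-4 at its EC80 concentration; % is set by controls: 0 for no effect and ±100 for the full control effect; compound concentration not given in the record; the text of the record puts the active cut at -80%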
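Tet-induced TRPML1-DL cells loaded with Ca8 no-wash calcium dye were read kinetically on FDSS. Compound addition was followed by EC80 agonist 54-4 (4 uM final); inhibition was read over 110 s.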
CtBP-E1A inh – blocks the CtBP interaction with E1A | AlphaScreen GST-E1A/His-CtBP binding, 1536-well; stronger effect = lower value; control for the full effect not named in the record | activity change, % (no concentration beside the values) | hit rate 0.49% among 340,000 | AID 651724; in the data active means activity change below about -65%; inconclusive means about -30% to -65%; inactive means above about -30%; note: % is set by controls: 0 for no effect and ±100 for the full control effect; compound concentration not given in the record
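In 5 uL wells, 23 nL compound meets equimolar GST-E1A and His-CtBP (5X stock 125 nM each) for 2 h, 37 °C. Beads (5X, 50 ug/mL) then 1 h, 37 °C, dark.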
* = called active by the depositor; ? = inconclusive; · = not tested or not shown.

SMILES	Six1-Eya2 inh	PINK1 expr mod	TRPML1 ag	TRPML1 blocker	CtBP-E1A inh
Cc1noc(C)c1C(=O)N1CCC[C@@]2(CCN(CC(C)C)C2)C1	·	-0.4%	·	·	·
COc1cccc2c1O[C@H]1C(=O)CC[C@H]3CN(C)CCC231 (stereo partly specified)	·	0.6%	·	·	·
O=C(Oc1ccccc1)N1CCC2(CCN(Cc3ccccc3)CC2)CC1	·	0.0%	·	·	·
O=C(c1csnn1)N1CCC[C@@]2(CCN(Cc3ccncc3)C2)C1	·	-0.2%	·	·	·
O=C(c1csnn1)N1CCC2(CC1)CN(Cc1ccncc1)C2	·	-1.2%	·	·	·
COC1C(O)C(C)O[C@@H](OC2CC[C@@]3(C)C4CC[C@]5(C)C(C6=CC(=O)OC6)CC[C@@]5(O)C4CC[C@@H]3C2)C1O (stereo partly specified)	·	-1.8%	·	·	·
c1ccc(CN2CCCC3(CCNCC3)C2)cc1	·	0.1%	·	·	·
CN1CCC2(CC1)CCN(C(=O)Oc1ccccc1)CC2	·	0.5%	·	·	·
CC(N)[C@H](O)c1ccccc1 (stereo partly specified)	·	1.5%	·	·	·
c1csc(CN2CC3(CCNCC3)C2)n1	·	?	·	·	·
O=C(Oc1ccccc1)N1CCC2(CCCN(Cc3ccccc3)C2)CC1	·	-1.4%	·	·	·
COC(=O)COc1ccc(Cl)cc1Cl	·	0.5%	·	·	·
c1ccc(CN2CC[C@@]3(CCCNC3)C2)cc1	·	-1.4%	·	·	·
Clc1ccccc1-c1cncnc1NCCc1cnc[nH]1	·	-1.1%	·	·	·
NCC(N)C(=O)c1ccccc1 (stereo unspecified)	·	-1.1%	·	·	·
N#Cc1ccc(CN2CCCC3(CCN(C(=O)Oc4ccccc4)CC3)C2)cc1	·	2.9%	·	·	·
C[C@@]12CCC3C(CCC4=CC(=O)CC[C@]43C)C1CCC2O (stereo partly specified)	·	-1.0%	·	·	·
c1cnc(N2CC[C@@]3(CCCNC3)C2)nc1	·	-0.3%	·	·	·
c1cnc(N2CC3(CCNCC3)C2)nc1	·	0.5%	·	·	·
O=C(c1ccncc1)N1CCC2(CC1)CN(Cc1ccccc1)C2	·	0.3%	·	·	·
CC(C)NC(=O)N1CCC2(CC1)CCN(C(=O)Oc1ccccc1)CC2	·	1.6%	·	·	·
O=C1NC(=O)C(=O)C(=O)N1	·	1.5%	·	·	·
CC(C)=CCCC1(C)C=Cc2c(O)c3c(c(CC=C(C)C)c2O1)OC12C(=CC4CC1C(C)(C)OC2(C/C=C(/C)C(=O)O)C4O)C3=O (stereo unspecified)	·	-1.8%	·	·	·
CC1(C)C(=O)[C@@H]2OC2[C@@]2(C)C1CC(O)[C@]1(C)C2CC[C@@]2(C)C(c3ccoc3)OC(=O)C3OC312 (stereo partly specified)	·	-0.4%	·	·	·
CS(=O)(=O)N1CCC2(CCCN(Cc3ccncc3)C2)CC1	·	-0.3%	·	·	·
CC(C)CN1CC[C@@]2(CCCN(C(=O)c3ccncc3)C2)C1	·	-1.4%	·	·	·
C[C@@]12CCC3C(CC[C@@H]4CC(O)CC[C@@]34C)C1CCC2O (stereo partly specified)	·	0.1%	·	·	·
COc1ccc(NC(=O)N2CCC3(CC2)CCN(C(=O)Oc2ccccc2)CC3)cc1	·	-0.7%	·	·	·
O=C(Oc1ccccc1)N1CCC2(CC1)CCN(C(c1ccccc1)c1ccccc1)CC2	·	0.6%	·	·	·
Clc1ccc(Cl)cc1	·	-0.2%	·	·	·
COc1c(CC=C(C)C)c2c(c3oc(=O)c(-c4ccc(O)cc4)c(O)c13)C=CC(C)(C)O2	·	-1.4%	·	·	·
Cc1c(P(=S)(c2ccccc2)c2ccccc2)[n+]2ccccc2n1C/C=C/c1ccccc1	·	?	·	·	·
c1ccc(CN2CCC3(CCNCC3)CC2)cc1	·	2.8%	·	·	·
CC(C)NC(=O)N1CCCC2(CCN(C(=O)Oc3ccccc3)CC2)C1	·	-0.4%	·	·	·
N#Cc1c(Cl)cccc1Cl	·	0.6%	·	·	·
C[C@]12CCC(=O)C=C1CCc1ccc(O)cc12	·	-1.3%	·	·	·

By substructure: the entries above with a carbonyl joined to an NH by a bond outside any ring
SMILES	Six1-Eya2 inh	PINK1 expr mod	TRPML1 ag	TRPML1 blocker	CtBP-E1A inh
CC(C)NC(=O)N1CCC2(CC1)CCN(C(=O)Oc1ccccc1)CC2	·	1.6%	·	·	·
COc1ccc(NC(=O)N2CCC3(CC2)CCN(C(=O)Oc2ccccc2)CC3)cc1	·	-0.7%	·	·	·
CC(C)NC(=O)N1CCCC2(CCN(C(=O)Oc3ccccc3)CC2)C1	·	-0.4%	·	·	·

Next entries.
SMILES	Six1-Eya2 inh	PINK1 expr mod	TRPML1 ag	TRPML1 blocker	CtBP-E1A inh
O=C(Nc1cccc(F)c1)N1CC2(CCN(C(=O)Oc3ccccc3)CC2)C1	·	-0.6%	·	·	·
COc1cc2nc(N(C)C)c(CNCCc3c[nH]c4ccccc34)cc2c(OC)c1OC	·	0.0%	·	·	·
COC(=O)N1CCC2(CCN(CC(C)C)CC2)CC1	·	-0.6%	·	·	·
N#Cc1ccc(CN2CC[C@@]3(CCCNC3)C2)cc1	·	0.5%	·	·	·
COc1ccc(C(=O)CN2CCOCC2)cc1	·	·	0.1	·	·
ClCCN(CCCl)/C(=C\c1ccccc1)c1ccnc2ccccc12	·	·	23	·	·
Cc1ccc(-c2nc3c(=O)n(C)c(=O)nc-3n(C)n2)cc1	·	-1.0%	-0.7	·	·
C=C1C=C(C(F)F)n2ncc(C(=O)NCc3ccccc3F)c2N1	·	-0.2%	-0.9	·	·
CCOC(=O)CCCc1cc[c]([Sb](=[O])([OH])[OH])cc1	·	-0.7%	-0.7	·	·
COc1cc(C2c3cc4c(c(O)c3CC3COC(=O)C32)OCO4)cc(OC)c1O (stereo unspecified)	·	3.3%	-0.1	·	·
O=C(CN1CCOCC1)c1ccc2ccccc2c1	·	-0.5%	-0.6	·	·
O=C(Nc1cc[c]([Sb](=[O])([OH])[OH])cc1)c1ccccc1	·	-0.6%	0.4	·	·
C[C@H]1CC[C@@H]2[C@@H](C)[C@H]3C(C[C@H]4C5CC[C@H]6C[C@@H](O)CC[C@]6(C)C5CC[C@]34C)N2C1 (stereo partly specified)	·	·	0.0	-5	·
Cc1o[nH]c(=O)c1C[C@@H](N)C(=O)O	·	·	-0.1	0	·
CC[C@H]1c2ccccc2[C@@H]2CC[C@H]1N2c1ccccc1	4	·	·	·	4
O=P(/C=C1\OCc2ccccc21)(Oc1ccccc1)Oc1ccccc1	9	·	·	·	-4
CNC(=O)C[C@H]1CC[C@@H]2NC[C@H](O)COC[C@H]2O1	-5	·	·	·	0

Reformatted in markdown: part of the list above
| canonical_smiles | Six1-Eya2 inh | PINK1 expr mod | TRPML1 ag | TRPML1 blocker | CtBP-E1A inh |
| --- | --- | --- | --- | --- | --- |
| O=C(Oc1ccccc1)N1CCC2(CC1)CCN(C(c1ccccc1)c1ccccc1)CC2 | · | 0.6% | · | · | · |
| Clc1ccc(Cl)cc1 | · | -0.2% | · | · | · |
| COc1c(CC=C(C)C)c2c(c3oc(=O)c(-c4ccc(O)cc4)c(O)c13)C=CC(C)(C)O2 | · | -1.4% | · | · | · |
| Cc1c(P(=S)(c2ccccc2)c2ccccc2)[n+]2ccccc2n1C/C=C/c1ccccc1 | · | ? | · | · | · |
| c1ccc(CN2CCC3(CCNCC3)CC2)cc1 | · | 2.8% | · | · | · |
| CC(C)NC(=O)N1CCCC2(CCN(C(=O)Oc3ccccc3)CC2)C1 | · | -0.4% | · | · | · |
| N#Cc1c(Cl)cccc1Cl | · | 0.6% | · | · | · |
| C[C@]12CCC(=O)C=C1CCc1ccc(O)cc12 | · | -1.3% | · | · | · |
| O=C(Nc1cccc(F)c1)N1CC2(CCN(C(=O)Oc3ccccc3)CC2)C1 | · | -0.6% | · | · | · |
| COc1cc2nc(N(C)C)c(CNCCc3c[nH]c4ccccc34)cc2c(OC)c1OC | · | 0.0% | · | · | · |
| COC(=O)N1CCC2(CCN(CC(C)C)CC2)CC1 | · | -0.6% | · | · | · |
| N#Cc1ccc(CN2CC[C@@]3(CCCNC3)C2)cc1 | · | 0.5% | · | · | · |
| COc1ccc(C(=O)CN2CCOCC2)cc1 | · | · | 0.1 | · | · |
| ClCCN(CCCl)/C(=C\c1ccccc1)c1ccnc2ccccc12 | · | · | 23 | · | · |
| Cc1ccc(-c2nc3c(=O)n(C)c(=O)nc-3n(C)n2)cc1 | · | -1.0% | -0.7 | · | · |
| C=C1C=C(C(F)F)n2ncc(C(=O)NCc3ccccc3F)c2N1 | · | -0.2% | -0.9 | · | · |
| CCOC(=O)CCCc1cc[c]([Sb](=[O])([OH])[OH])cc1 | · | -0.7% | -0.7 | · | · |
| COc1cc(C2c3cc4c(c(O)c3CC3COC(=O)C32)OCO4)cc(OC)c1O (stereo unspecified) | · | 3.3% | -0.1 | · | · |
| O=C(CN1CCOCC1)c1ccc2ccccc2c1 | · | -0.5% | -0.6 | · | · |
| O=C(Nc1cc[c]([Sb](=[O])([OH])[OH])cc1)c1ccccc1 | · | -0.6% | 0.4 | · | · |
| C[C@H]1CC[C@@H]2[C@@H](C)[C@H]3C(C[C@H]4C5CC[C@H]6C[C@@H](O)CC[C@]6(C)C5CC[C@]34C)N2C1 (stereo partly specified) | · | · | 0.0 | -5 | · |
| Cc1o[nH]c(=O)c1C[C@@H](N)C(=O)O | · | · | -0.1 | 0 | · |
| CC[C@H]1c2ccccc2[C@@H]2CC[C@H]1N2c1ccccc1 | 4 | · | · | · | 4 |
| O=P(/C=C1\OCc2ccccc21)(Oc1ccccc1)Oc1ccccc1 | 9 | · | · | · | -4 |
| CNC(=O)C[C@H]1CC[C@@H]2NC[C@H](O)COC[C@H]2O1 | -5 | · | · | · | 0 |

These rows are one share of the data; rates above refer to the full screens.
